# Screens: PubChem, several laboratories
# UCH37 DUB inh: inhibitors of human deubiquitinating enzyme UCH37; Q9Y5K5; purified proteasome/UCH37, Ub-AMC cleavage fluorescence; inhibition, % (test concentration not listed); actives 0.33% (n = 330,000);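 active = mean of two replicates above 20%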;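 also: 0% = compound-free wells with enzyme and 100% = wells lacking proteasome; stock transfer was 100 nL into about 20 µL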
#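 Material: Human UCH37 enzyme supplied as purified proteasome complex | Schedule: 30 min compound-proteasome preincubation then 25 min substrate reaction, room temperature | Detection: AMC fluorescence from Ub-AMC cleavage, excitation 355 nm, emission 460 nm | Benchmarks: Wells without proteasome as full block, compound-free enzyme plus substrate as uninhibited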
# HNF4A DNA FP: change in binding of human HNF4 alpha to DNA. P41235. HNF4a-FITC DNA binding, fluorescence polarization, 1 h. activity change, % at 10 µM. actives 0.3% (n = 360,000). AID 1224865; in the data active = activity change above about 30%, passing the limit was not always enough;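 also: controls were the assay level and a saturating level of protein; the project sought stronger binding though the title names inhibitors; some compounds called inactive have numbers as strong as hits; positive values seem to mean higher polarization but the record does not say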
# FGF22 binding: shifts melting point of recombinant human FGF22; Q9HCT0; calls only at 9.99 µM; AID 651658; actives 1.5% (n = 340,000); recombinant FGF22 thermal shift, SYPRO orange fluorescence; percent of sucrose octasulfate shift, DMSO zero;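 active = melting point raised past a set limit in the mean and every replicate; inconclusive = no clear call; three in four hits are not shown here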
# Target sequence (Q9HCT0 whole entry, looked up): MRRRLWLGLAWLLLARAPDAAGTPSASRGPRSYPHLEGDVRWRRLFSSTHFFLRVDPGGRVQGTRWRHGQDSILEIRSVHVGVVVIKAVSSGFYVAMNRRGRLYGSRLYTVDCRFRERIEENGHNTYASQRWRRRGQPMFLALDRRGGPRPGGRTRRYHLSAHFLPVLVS
# B2AR ag: human beta-2 adrenergic receptor agonism by FAP; P07550; AID 504454; actives 0.43% (n = 340,000); response, % (concentration not given with the values); Am2.2-beta2AR cells, FAP receptor internalization, flow cytometry; reference of the scale not given here;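 active = response above a set limit, near 3 SD of response in nonfluorescent compounds, cut at about 42% in these data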;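 also: stock transfer was 100 nL into about 11 µL; a reference agonist was the positive control; negative values mostly stem from fluorescent compounds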
# Target sequence (P07550 whole entry, looked up): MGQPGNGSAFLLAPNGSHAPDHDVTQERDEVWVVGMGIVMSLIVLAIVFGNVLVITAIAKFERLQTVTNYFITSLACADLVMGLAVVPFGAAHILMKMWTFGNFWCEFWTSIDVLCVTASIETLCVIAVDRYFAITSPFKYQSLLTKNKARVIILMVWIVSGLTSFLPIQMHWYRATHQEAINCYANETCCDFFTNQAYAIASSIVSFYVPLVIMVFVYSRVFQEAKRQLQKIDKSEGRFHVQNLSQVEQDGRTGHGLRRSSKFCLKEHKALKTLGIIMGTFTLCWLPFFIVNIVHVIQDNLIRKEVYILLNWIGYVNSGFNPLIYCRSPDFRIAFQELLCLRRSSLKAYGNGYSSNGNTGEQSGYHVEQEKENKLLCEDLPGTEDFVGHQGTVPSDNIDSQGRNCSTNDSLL
# ALR inh: human ALR oxidase inhibition via reduced H2O2 | P55789 | purified ALR, DTT oxidation, H2O2 HRP-luminol luminescence | inhibition, % (concentration not given with the values) | actives 3.8% (n = 290,000) | AID 485317;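 active = mean and each replicate at 75% or more; inconclusive = only one of the two met; inactive = neither met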;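 also: stock transfer was 7.5 nL into about 7.5 µL; 0% = neutral wells and 100% = wells with inactivated enzyme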
# Target sequence (P55789 whole entry, looked up): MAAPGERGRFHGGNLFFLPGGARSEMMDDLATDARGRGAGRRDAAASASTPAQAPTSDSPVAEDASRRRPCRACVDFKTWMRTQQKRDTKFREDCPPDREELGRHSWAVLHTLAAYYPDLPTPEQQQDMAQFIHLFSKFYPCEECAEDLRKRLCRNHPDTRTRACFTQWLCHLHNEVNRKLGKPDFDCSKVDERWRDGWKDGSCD
# E coli growth: E. coli growth inhibition; Escherichia coli growth, OD600, 23 h; active compounds read low; OD600 absorbance (test concentration not listed); actives 0.21% (n = 330,000);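 active = OD600 absorbance below the run mean of sample wells minus 3.6 SD, in any replicate, cut at about 0.56 in these data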;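 also: stock transfer was 300 nL into about 60 µL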
# Ecoli rRNA inh: selective bacterial rRNA inhibition in E. coli | E. coli WT GFP vs humanized-ribosome RFP mutants, fluorescence, 24 h; active compounds read low; DMSO median 0, no signal -100 | GFP signal change (wild-type ribosome), % (test concentration not listed) | actives 1.6% (n = 350,000) | AID 720706;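 active = significant combined selectivity score with lowered wild-type GFP, culture density cut under 30%, mutant RFP and density less affected; inactive = any of these conditions unmet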; also: one replicate is shown; some compounds called inactive have numbers as strong as hits
# Ecoli rRNA inh OD600: recorded beside Ecoli rRNA inh, whose call it bears; OD600 change, %; measured here: OD600 growth;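 optical density of the mix in the first replicate; 0 = DMSO median and -100 = no signal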
# Ecoli rRNA inh RFP: second read-out of Ecoli rRNA inh, no call of its own (marks repeat the call); RFP signal change, %; measured here: RFP humanized mutant strains;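 first replicate; 0 = DMSO median and -100 = no signal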
# * hit, by the source's call; i = inactive; ? = inconclusive; / = no result given; & = joins results of further samples.
SMILES,UCH37 DUB inh,HNF4A DNA FP,FGF22 binding,B2AR ag,ALR inh,E coli growth,Ecoli rRNA inh,Ecoli rRNA inh OD600,Ecoli rRNA inh RFP
c1ccc(-c2nnc3sc(-c4ccncc4)nn23)cc1,0.7,3.3,/,-7,10,0.64,/,/,/
CCOC(=O)CSC1=Nc2ccccc2C2=NC(CC(=O)NCc3ccc4c(c3)OCO4)C(=O)N12 (stereo unspecified),4.3,-1.7,/,3,5,0.68,/,/,/
O=S1(=O)C[C@H](N2CCC(Cc3ccccc3)CC2)[C@@H](COCc2ccccc2)N1,/,-0.9,i,/,/,/,-22,-37,-1.2
O=C(Nc1cc(S(=O)(=O)N2CCCCC2)ccc1N1CCCCC1)c1ccncc1,1.0,-1.3,i,2,-1,0.67,-30,-48,-26
CSc1ncccc1C(=O)OCC(=O)N1CC2(C)CC1CC(C)(C)C2 (stereo unspecified),1.3,8.2,i,8,/,0.69,-19,-22,-0.3
CCOC(=O)c1ccc(Nc2cc(C)nc3ncnn23)cc1,3.4,0.4,/,-8,-10,0.71,/,/,/
Cc1ccc(C)c(OCCCN2CCc3ccccc3C2)c1,4.6,3.1,i,-7,-11,0.66,-9,-17,-3.2
O=C(NC(c1ccccc1)c1c(O)ccc2ccccc12)c1ccccc1Cl (stereo unspecified),-0.8,-1.0,/,7,-13,0.72,/,/,/
CC(C)CN(C(=O)c1cccc(Cl)c1)c1c(N)n(CC(C)C)c(=O)[nH]c1=O,1.4,0.6,i,7,-1,0.74,11,16,-1.4
O=[N+]([O-])c1cccc(-n2nnnc2CNCc2ccccc2)c1,2.3,-2.9,i,-1,-11,0.71,8,2,-2.8
CNC[C@@H]1OCc2ccccc2-c2c(n(C)c3ccccc23)C(=O)N([C@H](C)CO)C[C@@H]1C,/,3.0,i,/,/,/,-1&1,2&11,0.6&-5.6
CCCCN(CCCC)Cc1cc(=O)oc2cc(OC)c(Cl)cc12,/,3.3,i,/,/,/,-2,5,9.3
COc1ccc2oc(C(=O)C3CC3)c(N)c2c1,-37,1.0,/,-2,13,0.67,/,/,/
N#Cc1cccc(NC(=O)COc2ccc(-n3ccnc3)cc2)c1,3.4,-1.4,/,-7,-1,0.63,/,/,/
Cc1ccc(S(=O)(=O)N2CCCCCC2)cc1[N+](=O)[O-],-0.1,-2.7,i,-6,10,0.69,-13,-6,-2.6
CCN(CC)CCN(Cc1cc2cccc(C)c2[nH]c1=O)C(=S)Nc1ccccc1,1.4,0.3,i,17,50,0.71,0,4,4.8
COc1cc([N+](=O)[O-])ccc1NC(=O)COC(=O)c1ccc(NC(N)=O)cc1,7.0,-1.2,i,-1,-29,0.71,1,-11,0.6
CC(C)Cc1nc2n[nH]c(N)c2c2c1COC(C)(C)C2,1.1,-1.7,/,8,5,0.7,/,/,/
CN(C(=O)Nc1ccccc1)C1CCS(=O)(=O)C1 (stereo unspecified),-0.3,0.6,/,0,/,0.75,/,/,/
CC(=O)Nc1ccc(NS(=O)(=O)c2ccc3c(c2)n(C)c(=O)n3C)cc1,2.4,3.6,i,-1,-11,0.65,8,5,0.5
O=C(CSc1nnc(NC(=O)C2CC2)s1)NCc1cccs1,-0.7,2.9,i,0,-13,0.67,15,8,-0.6
Cc1ccc(NC(=O)c2nc[nH]c2C(=O)NCCCCCNC(=O)OC(C)(C)C)cc1,0.6,0.3,i,10,-5,0.7,8,15,-5.7
COC(=O)c1sccc1NC(=O)CSc1ccc(Cl)cc1,1.2,-0.1,/,0,1,0.69,/,/,/
O=C(Nc1ccccc1)Nc1nnc(Cc2ccc([N+](=O)[O-])cc2)s1,2.3,1.8,/,-4,1,0.7,/,/,/
CCOc1ccc(C2C(C(=O)O)CCC(=O)N2C2CCCCC2)cc1 (stereo unspecified),4.4,1.1,i,6,1,0.7,5,-2,-2.9
O=C(COC(=O)c1ccc[nH]c1=O)NCCCc1ccccc1,-2.6,-1.5,i,-3,/,0.66,3,7,-0.1
Cc1ccc(S(=O)(=O)Nc2c(C)n(C)n(-c3ccccc3)c2=O)cc1C(=O)NCc1ccccn1,0.5,-0.8,/,-1,5,0.72,/,/,/
Cc1ccc(S(=O)(=O)c2ccc(-n3nc(C)cc3N)cc2)cc1,4.0,3.2,i,0,-5,0.66,-2,2,-1.8
Clc1ccc(C2=Nn3c(nnc3-c3n[nH]c4c3CCC4)SC2)cc1Cl,2.7,0.5,/,20,-1,0.7,/,/,/
CCOc1ccc(CNC(=S)N/N=C/c2cccnc2)cc1,/,1.4,i,-2,2,/,-16,-16,-6.4
CCCCNC(=S)Nc1ccc(C(F)(F)F)cc1,5.7,-1.8,i,-5,36,0.56,-38,-57,-8.6
Cc1ccc2nsnc2c1S(=O)(=O)Nc1cccc2nsnc12,-1.2,0.3,/,-3,-12,0.71,/,/,/
NC(=O)c1ccc2c(c1)OCCO2,1.4,2.1,/,16,-2,0.69,/,/,/
NS(=O)(=O)c1cccc(NC(=O)COC(=O)c2ccccc2SCC(=O)N2CCCC2)c1,0.7,1.8,i,-2,/,0.67,-4,-3,16
CCC(=O)c1ccc(OCC(=O)c2ccc3c(c2)NC(=O)CO3)cc1,4.9,1.3,i,-7,-15,0.73,15,6,0.6
Oc1ccc2n[nH]nc2c1,-4.6,-0.3,/,4,21,0.67,/,/,/
Cn1c(SCC(=O)N2CCOCC2)nnc1-c1cccc(NC(=O)c2ccccc2)c1,-1.4,0.6,/,-8,3,0.71,/,/,/
CC(=O)c1c(C)[nH]c(C(=O)NCc2ccccc2F)c1C,2.8,-0.1,/,5,3,0.7,6,-2,2.8
Cc1ccccc1C(=O)c1c[nH]c(C(=O)NCc2ccco2)c1,0.7,-4.3,/,-2,9,0.77,/,/,/
Cc1ccc2c(COC(=O)c3ccccc3F)cc(=O)oc2c1,-9.4,3.0,i,6,-4,0.66,1,8,1.0
COCCNC(=O)C1(C)CCN(Cc2cccc(Oc3ccccc3)c2)C1 (stereo unspecified),/,0.5,i,/,/,/,3,0,2.3
O=C(CSc1nc2ccc(S(=O)(=O)N3CCOCC3)cc2[nH]1)N1CCOCC1,1.1,-1.1,/,3,-5,0.68,/,/,/
Cc1cc(C)n(-c2ccc(C(=O)N3CCN(c4ccccn4)CC3)cc2)n1,2.7,1.5,i,-5,1,0.68,/,/,/
Cc1ccc2occ(C3NC(C(=O)O)CS3)c(=O)c2c1 (stereo unspecified),-53,0.4,/,-5,98*,0.69,/,/,/
CCOC(=O)CSc1nnc(CNc2ccc(Cl)cc2)n1Cc1ccccc1,0.0,-0.5,/,1,5,0.77,/,/,/

# In the list so far, 2 contain a thiophene ring, fused or not:
SMILES,UCH37 DUB inh,HNF4A DNA FP,FGF22 binding,B2AR ag,ALR inh,E coli growth,Ecoli rRNA inh,Ecoli rRNA inh OD600,Ecoli rRNA inh RFP
O=C(CSc1nnc(NC(=O)C2CC2)s1)NCc1cccs1,-0.7,2.9,i,0,-13,0.67,15,8,-0.6
COC(=O)c1sccc1NC(=O)CSc1ccc(Cl)cc1,1.2,-0.1,/,0,1,0.69,/,/,/

# Following part:
SMILES,UCH37 DUB inh,HNF4A DNA FP,FGF22 binding,B2AR ag,ALR inh,E coli growth,Ecoli rRNA inh,Ecoli rRNA inh OD600,Ecoli rRNA inh RFP
O=C(Cn1nc(-c2ccccc2)ccc1=O)N1CCOCC1,4.0,3.7,i,4,-6,0.75,1,2,-0.9
CC(OC(=O)c1ccc(Cl)cc1)C(=O)NCc1ccc2c(c1)OCO2 (stereo unspecified),0.3,1.8,i,0,/,0.66,/,/,/
CCOC(=O)C(=O)Nc1ccc(S(=O)(=O)Nc2nccs2)cc1,1.7,-4.1,i,-1,-1,0.71,-1,3,0.4
CN(C(=O)c1cccc(NC(=O)Cc2ccc(NC(=O)C3CCN(C(=O)C4CCC4)CC3)cc2)c1)C1CC1,1.7,-0.3,i,-2,/,0.7,4,5,-7.1
Cc1cc(C)c(C)c(C(=O)C(=O)c2ccccc2)c1,/,-3.6,i,-6,/,/,5,14,-0.5
O=C(O)c1ccc(COCC(F)(F)C(F)F)o1,4.4,-4.6,/,0,1,0.72,/,/,/
O=C(Nc1ccccc1)c1cccc(C(F)(F)F)c1,6.5,-0.1,/,3,-4,0.61,/,/,/
CON(C)C(=O)c1ccccc1N(C)C(=O)OC(C)(C)C,-1.9,5.1,/,-1,-10,0.7,/,/,/
COCC(C)n1c(C)cc(C(=O)COC(=O)c2nn(C)c(=O)c3ccccc23)c1C (stereo unspecified),4.9,0.0,i,8,2,0.73,8,3,1.4
COc1ccc2cc(OCC(=O)NNC(=O)Nc3ccc(F)cc3)ccc2c1,-4.5,-1.2,i,8,-11,0.66,3,9,-1.1
O=C(O)c1ccccc1/C=N/NC(=O)C1CCCCC1,/,-0.5,i,-7,-11,/,1,-4,1.0
O=C1/C(=C/c2ccncc2)Oc2cc(OS(=O)(=O)c3ccccc3)ccc21,4.1,4.9,i,9,/,0.65,10,-1,0.1
CCCN1CCC(=O)N(CCSc2ccc(NC(C)=O)cc2)CC1,3.2,-0.1,i,-5,6,0.68,9,5,3.6
O=C1N[C@@H](Cc2ccccc2)COC(=O)[C@H](Cc2ccc(F)cc2)CC/C=C/C[C@H]1CC(=O)N(CCO)Cc1ccccc1,2.6,-5.1,i,8,-5,/,4,0,18
COCCCNC(=O)COc1cc(C)c(Cl)c(C)c1,2.9,-1.3,/,-5,-8,0.76,/,/,/
C=CCn1c(CC(=O)Nc2cccc(OC)c2)nnc1SCC(=O)NC1CCCCC1,-0.2,2.9,/,-6,-7,0.7,/,/,/
CC1=C(C(=O)N(C(C)C)C(C)C)CC(CC(=O)NCCN2CCOCC2)C(=O)N1CCC1=CCCCC1 (stereo unspecified),/,0.5,i,/,/,/,4,8,0.6
CCOC(=O)CN(C(=O)c1snc(C(N)=O)c1N)C(C(=O)NCCC(C)C)c1ccc(C)cc1 (stereo unspecified),/,-2.7,i,/,/,/,-2,3,1.3
COc1cc2c(cc1NC(=O)COC(=O)c1ccccc1)oc1ccccc12,-15,/,/,/,-3,0.73,/,/,/
Cc1nnc(N/N=C/C(C)c2ccccc2)[nH]c1=O (stereo unspecified),/,-1.0,i,-3,8,/,5,9,-4.2
O=C(NCCOc1ccccc1)[C@@H]1CCCN1C(=O)c1cccs1,-1.7,1.9,/,-1,/,0.66,5,11,3.4
CN(C)c1ccc(NC(=O)COC(=O)c2cc(Cl)ccc2[N+](=O)[O-])cc1,-0.1,1.2,i,8,?,0.67,8,4,-3.0
CCN1Cc2cc(OC)ccc2-c2ccccc2S1(=O)=O,1.9,4.3,i,1,/,0.67,-7,-11,0.6
Cc1ccc(NC(=O)[C@H](Cc2ccccc2)NC(=O)CC[C@H]2O[C@@H](n3ccc(=O)[nH]c3=O)[C@H](O)[C@@H]2O)cc1C,/,3.4,i,/,/,/,6,4,-1.0
O=C(NC1CCCC1)C(c1ccccn1)N(C(=O)c1csnn1)C1CC1 (stereo unspecified),1.7,6.3,/,5,-4,0.68,/,/,/
COc1ccc([N+](=O)[O-])cc1NC(=O)COC(=O)C12CC3CC(CC(O)(C3)C1)C2,/,0.6,i,/,/,/,-1,6,-2.5
COc1c(S(=O)(=O)N2CCCC2)ccc(Cl)c1Cl,6.2,-3.1,/,-2,0,0.7,/,/,/

# With a hit mark in ALR inh, of those listed so far:
structure	UCH37 DUB inh	HNF4A DNA FP	FGF22 binding	B2AR ag	ALR inh	Ecoli rRNA inh	Ecoli rRNA inh OD600	Ecoli rRNA inh RFP
Cc1ccc2occ(C3NC(C(=O)O)CS3)c(=O)c2c1 (stereo unspecified)	-53	0.4	/	-5	98*	/	/	/

# Some of the compounds tested. The share of hits here may be higher or lower than overall.
